High-throughput results from PubChem.
NOMO-1 viab: NOMO-1 AML cell viability reduction, primary screen, STK33 inhibitor project, CellTiter-Glo luminescence; NOMO-1 AML viability, 72 h; inhibition, % (no concentration beside the values); 7.5% of 37,000 active; AID 2330, 2010;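 active = most replicates above 80%; inconclusive = exactly half above 80%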;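 note: wells of about 30 µL received 25 nL stock; 0% = median of vehicle wells and 100% = reference inhibitor level; the first replicate is given; inactives centre near 10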
* = called active by the depositor; ? = inconclusive.

compound	NOMO-1 viab
C[C@@H]1CN([C@@H](C)CO)C(=O)c2cc(NC(=O)Nc3cccc4ccccc34)ccc2O[C@@H]1CN(C)Cc1ccc(-c2ccccc2)cc1	109*
C[C@H](CO)N1C[C@H](C)[C@H](CN(C)S(=O)(=O)c2ccc(F)cc2)Oc2ccc(NS(=O)(=O)c3cccs3)cc2C1=O	33
Clc1ccc(/C=N\n2cnnc2)c(Cl)c1	?
C[C@H](CO)N1C[C@H](C)[C@@H](CN(C)S(=O)(=O)c2cn(C)cn2)Oc2ccc(NS(=O)(=O)c3ccc(Cl)cc3)cc2C1=O	11
COc1ccc(OC)c(S(=O)(=O)Nc2cc3c(C(C)=O)c(C)oc3c3ccccc23)c1	24
C[C@H](CO)N1C[C@H](C)[C@@H](CN(C)CC2CCCCC2)Oc2ccc(NC(=O)C3CC3)cc2C1=O	-8
COc1cccc2sc(NC(=O)c3ccc(S(=O)(=O)N(C)C)cc3)nc12	27
CC(C)NC(=O)N(C)C[C@@H]1Oc2ccc(NS(=O)(=O)c3ccccc3)cc2CC(=O)N([C@@H](C)CO)C[C@@H]1C	12
C[C@H](CO)N1C[C@H](C)[C@H](CN(C)Cc2ccc(C(=O)Nc3ccccc3N)cc2)Oc2ccc(NC(=O)C3CCCCC3)cc2CC1=O	141*
COc1ccc(NC(=O)N(C)C[C@H]2Oc3ccc(NS(=O)(=O)c4ccc(C)cc4)cc3CC(=O)N([C@H](C)CO)C[C@H]2C)cc1	11
C[C@H](CO)N1C[C@H](C)[C@H](CN(C)C(=O)NC2CCCCC2)Oc2c(NS(=O)(=O)c3ccc(F)cc3)cccc2C1=O	8
COc1cc(NC(=O)CC2NC3CCCCC3NC2=O)cc(OC)c1 (centres undefined)	9

A stretch from further up, as a working copy:
compound	NOMO-1 viab
C[C@H](CO)N1C[C@H](C)[C@H](CN(C)S(=O)(=O)c2ccc(F)cc2)Oc2ccc(NS(=O)(=O)c3cccs3)cc2C1=O	33
Clc1ccc(/C=N\n2cnnc2)c(Cl)c1	?
C[C@H](CO)N1C[C@H](C)[C@@H](CN(C)S(=O)(=O)c2cn(C)cn2)Oc2ccc(NS(=O)(=O)c3ccc(Cl)cc3)cc2C1=O	11
COc1ccc(OC)c(S(=O)(=O)Nc2cc3c(C(C)=O)c(C)oc3c3ccccc23)c1	24
C[C@H](CO)N1C[C@H](C)[C@@H](CN(C)CC2CCCCC2)Oc2ccc(NC(=O)C3CC3)cc2C1=O	-8
COc1cccc2sc(NC(=O)c3ccc(S(=O)(=O)N(C)C)cc3)nc12	27

(more compounds)
compound	NOMO-1 viab
C[C@H]1CN([C@@H](C)CO)C(=O)c2cc(NS(=O)(=O)c3ccc(Cl)cc3)ccc2O[C@@H]1CN(C)S(=O)(=O)c1ccccc1	9
C[C@H](CO)N1C[C@H](C)[C@H](CN(C)S(=O)(=O)c2cccs2)Oc2c(NC(=O)C3CCCCC3)cccc2C1=O	-2
COc1ccc(S(=O)(=O)Nc2cccc3c2O[C@H](CN(C)S(=O)(=O)c2ccccc2)[C@@H](C)CN([C@H](C)CO)C3=O)cc1	-5
COc1ccc(NC(=O)Nc2cccc3c2O[C@H](CN(C)C(=O)Nc2cccc4ccccc24)[C@@H](C)CN([C@@H](C)CO)C3=O)cc1	12
CCc1nc(SCC(=O)Nc2ccccc2C(=O)OC)n[nH]1	-4
Cc1ccc(S(=O)(=O)N(C)C[C@@H]2Oc3ccc(NC(=O)CCCCCC(=O)Nc4ccccc4N)cc3C(=O)N([C@@H](C)CO)C[C@H]2C)cc1	-1
C[C@@H]1CN([C@H](C)CO)C(=O)Cc2cc(NS(C)(=O)=O)ccc2O[C@@H]1CN(C)Cc1ccc2c(c1)OCO2	9
C[C@H]1CN([C@@H](C)CO)C(=O)c2cccc(NC(=O)NC3CCCCC3)c2O[C@H]1CN(C)C	-7
CC(=O)c1ccc(NC(=O)COc2ccccc2C(=O)Nc2cc(C(F)(F)F)ccc2Cl)cc1	6
C[C@H]1CN([C@@H](C)CO)C(=O)c2cc(NS(=O)(=O)c3ccc(Cl)cc3)ccc2O[C@@H]1CN(C)C(=O)Nc1ccc(C(F)(F)F)cc1	23
C[C@@H]1CN([C@H](C)CO)C(=O)c2cc(NC(=O)C3CCCCC3)ccc2O[C@@H]1CN(C)C(=O)Nc1cccc2ccccc12	10
C[C@@H]1CCCCO[C@@H](CN(C)C(=O)Nc2ccc3c(c2)OCO3)[C@@H](C)CN([C@H](C)CO)C(=O)c2cc(NS(=O)(=O)c3cccs3)ccc2O1	-3
C[C@H](CO)N1C[C@H](C)[C@H](CN(C)Cc2ccc(Oc3ccccc3)cc2)Oc2ccc(NS(C)(=O)=O)cc2CC1=O	21
COc1ccccc1Nc1nc(N)nc(CN2CCCCCC2)n1	25
C[C@H](CO)N1C[C@H](C)[C@@H](CN(C)CC2CC2)Oc2c(NC(=O)c3cnccn3)cccc2C1=O	-25
CC(C)NC(=O)N(C)C[C@H]1Oc2ccc(NC(=O)Nc3cccc4ccccc34)cc2CC(=O)N([C@@H](C)CO)C[C@H]1C	26
COc1ccc(NC(=O)N(C)C[C@@H]2OCCCC[C@@H](C)Oc3ccc(NC(=O)Nc4ccc(F)cc4)cc3C(=O)N([C@H](C)CO)C[C@@H]2C)cc1	13
COc1ccc(NC(=O)N(C)C[C@@H]2Oc3c(NS(C)(=O)=O)cccc3C(=O)N([C@H](C)CO)C[C@H]2C)cc1	13
COc1ccc(NC(=O)N(C)C[C@@H]2Oc3ccc(NS(=O)(=O)c4ccccc4)cc3C(=O)N([C@H](C)CO)C[C@@H]2C)cc1	13
CCN(CC(=O)Nc1cccc2ccccc12)S(=O)(=O)c1ccc2ccccc2c1	-5
C[C@H](CO)N1C[C@H](C)[C@H](CN(C)Cc2ccc(Cl)c(Cl)c2)Oc2ccc(NC(=O)CCCCCC(=O)Nc3ccccc3N)cc2C1=O	133*
O=C(CC1(O)C(=O)N(Cc2ccccc2)c2ccc(Br)cc21)c1ccco1 (centres undefined)	114*
C[C@@H]1CN([C@@H](C)CO)C(=O)c2cc(NC(=O)Cc3cn(C)c4ccccc34)ccc2O[C@H]1CN(C)S(=O)(=O)c1cccs1	7
Cc1ccc(S(=O)(=O)N(C)C[C@@H]2Oc3ccc(NC(=O)Cn4cnnn4)cc3CC(=O)N([C@@H](C)CO)C[C@@H]2C)cc1	14

Brought forward from above: 2 entries; new compounds follow.
compound	NOMO-1 viab
C[C@@H]1CN([C@@H](C)CO)C(=O)c2cc(NC(=O)Cc3cn(C)c4ccccc34)ccc2O[C@H]1CN(C)S(=O)(=O)c1cccs1	7
Cc1ccc(S(=O)(=O)N(C)C[C@@H]2Oc3ccc(NC(=O)Cn4cnnn4)cc3CC(=O)N([C@@H](C)CO)C[C@@H]2C)cc1	14
CCS(=O)(=O)c1nc2ccccc2n1CCOc1ccc(OC)cc1	27
CC(C)(C)C(=O)Nc1cccc(-c2cc(-c3c(Cl)cccc3Cl)no2)c1	23
Cc1cc(SCC(=O)Nc2sc3c(c2C#N)CCCC3)nc2ccccc12	1
C[C@@H]1CN([C@H](C)CO)C(=O)c2cc(NC(=O)Nc3ccccc3)ccc2O[C@H]1CN(C)Cc1ccc2c(c1)OCO2	13
COc1ccc(N2C(=O)CC(SCC(=O)Nc3ccc(C)c(C)c3)C2=O)cc1 (centres undefined)	-9
CNC[C@H]1Oc2c(NS(C)(=O)=O)cccc2C(=O)N([C@@H](C)CO)C[C@H]1C	13
CN(/N=C(\C#N)C(=O)C1CC1)c1ccc(Cl)cc1	29
COc1ccc(NC(=O)C2CC(=O)NC(=Nc3ccccc3)S2)cc1 (centres undefined)	-6
O=C(c1ccc(C(=O)N2CCCCC2)cc1)N1CCCCC1	32
O=C(O)c1cccc(NC(=O)c2ccc(CN3C(=O)c4ccccc4C3=O)cc2)c1	-3
Cc1noc(C)c1S(=O)(=O)N(C)C[C@@H]1Oc2ccc(NC(=O)NC3CCCCC3)cc2CC(=O)N([C@H](C)CO)C[C@H]1C	16
C[C@H](CO)N1C[C@H](C)[C@@H](CN(C)Cc2ccc(Cl)c(Cl)c2)Oc2ccc(NS(C)(=O)=O)cc2C1=O	21
C[C@H](CO)N1C[C@H](C)[C@@H](CN(C)S(C)(=O)=O)Oc2ccc(NS(=O)(=O)c3ccc(Cl)cc3)cc2C1=O	14
O=C(Nc1nc2ccccc2n1CCN1CCOCC1)c1ccccc1	19
C[C@H]1CN([C@@H](C)CO)C(=O)Cc2cc(NC(=O)Cc3ccccc3)ccc2O[C@@H]1CN(C)Cc1ccc2c(c1)OCO2	25
CCOc1ccc(C)cc1S(=O)(=O)n1nnc2ccccc21	19
Cc1noc(C)c1NC(=O)N(C)C[C@@H]1Oc2ccc(NC(=O)Cc3cn(C)c4ccccc34)cc2C(=O)N([C@@H](C)CO)C[C@H]1C	-5
Cc1ccc(S(=O)(=O)N(C)C[C@H]2Oc3c(NC(=O)Nc4ccc(F)cc4)cccc3C(=O)N([C@@H](C)CO)C[C@H]2C)cc1	98*
CCc1cccc(C)c1NC(=O)CSc1nnc(-c2ccc(C)cc2)n1C	4
Cc1ccc(S(=O)(=O)c2nc(-c3ccccc3F)oc2NCC2CCCO2)cc1 (centres undefined)	40
COc1ccc(NC(=O)Nc2cccc3c2O[C@@H](CN(C)C)[C@@H](C)CN([C@@H](C)CO)C3=O)cc1	14
C[C@@H]1CN([C@@H](C)CO)C(=O)c2cc(NC(=O)CCCN(C)C)ccc2O[C@@H]1CN(C)Cc1ccc(C(=O)O)cc1	1
Cn1c(SCC(=O)Nc2ccccc2-c2ccccc2)nnc1-c1ccccn1	6
CCc1ccc(-n2c(N)c(C(=O)OC)c3nc4ccccc4nc32)cc1	14
Cc1noc(C)c1NC(=O)Nc1cccc2c1O[C@@H](CN(C)C(=O)Nc1ccccc1)[C@H](C)CN([C@H](C)CO)C2=O	-13
Fc1ccccc1CSc1nnc(-c2cnccn2)n1Cc1ccco1	0
Cc1noc(C)c1S(=O)(=O)Nc1ccc2c(c1)C(=O)N([C@@H](C)CO)C[C@@H](C)[C@@H](CN(C)Cc1ccc(Oc3ccccc3)cc1)O2	102*
Cc1ccc(Cl)c(OCC(O)Cn2cnc3cc(C)c(C)cc32)c1 (centres undefined)	29
O=C1C(=O)N(CCCn2ccnc2)C(c2ccccc2)C1C(=O)c1ccco1 (centres undefined)	-11
COc1c(O)c2c(=O)cc(OC)c3c4c(OC)cc(=O)c5c(O)c(OC)c(C[C@@H](C)OC(=O)c6ccccc6)c(c(c1C[C@@H](C)OC(=O)Oc1ccc(O)cc1)c23)c54	142*
Cc1ccc(S(=O)(=O)Nc2ccc3c(c2)C(=O)N([C@H](C)CO)C[C@H](C)[C@@H](CN(C)C(=O)Nc2ccc4c(c2)OCO4)O3)cc1	-19
C[C@H]1CN([C@@H](C)CO)C(=O)c2cc(NC(=O)Nc3ccccc3)ccc2O[C@@H]1CN(C)C(=O)Nc1cccc2ccccc12	-11
Cc1ccc(NC(=O)c2ccc(-n3nc(C(F)(F)F)c4c3-c3ccoc3CC4)cc2)cc1	34
O=S1(=O)C=C2C(C1)SC(=S)N2C1CCS(=O)(=O)C1 (centres undefined)	16
C[C@H](CO)N1C[C@H](C)[C@@H](CN(C)S(=O)(=O)c2ccc(Cl)cc2)Oc2ccc(NC(=O)CCCN(C)C)cc2C1=O	16
C[C@H]1CN([C@@H](C)CO)C(=O)Cc2cc(NS(=O)(=O)c3cccs3)ccc2O[C@@H]1CN(C)Cc1ccc(C(=O)Nc2ccccc2N)cc1	45
COc1ccc(NC(=O)N(C)C[C@H]2Oc3ccc(NS(C)(=O)=O)cc3C(=O)N([C@H](C)CO)C[C@H]2C)cc1	23
O=C(CSc1nc2cc3ccccc3cc2[nH]1)Nc1ccccc1Cl	108*
Cc1nccc(-c2cccc(NS(=O)(=O)c3ccccc3C(F)(F)F)c2)n1	-14
C[C@@H]1CN([C@H](C)CO)C(=O)c2cccc(NC(=O)C3CCOCC3)c2O[C@H]1CN(C)S(C)(=O)=O	10
Cc1ccc(S(=O)(=O)Nc2cccc3c2O[C@H](CN(C)S(=O)(=O)c2ccc(C)cc2)[C@H](C)CN([C@H](C)CO)C3=O)cc1	34
O=C(CSc1ncccn1)Nc1nccs1	-14
CS(=O)(=O)N(CC(=O)NC1CC1)c1cccc(F)c1	-4
COc1ccc(NC(=O)c2ccc(OCC(=O)Nc3ccccc3F)cc2)cc1Cl	19
COc1ccc(Cl)cc1N(CC(=O)Nc1ccc(C)c(C)c1)S(C)(=O)=O	36
C[C@@H]1CN([C@H](C)CO)C(=O)c2cc(NS(=O)(=O)c3cn(C)cn3)ccc2O[C@@H]1CN(C)Cc1ccc(Oc2ccccc2)cc1	19
Cc1ccc2cccc(S(=O)(=O)N3CCC(C(=O)O)CC3)c2n1	-3
CCOC(=O)c1ccc(-c2coc3cc(OC(C)=O)c(CC)cc3c2=O)o1	7
C[C@@H]1CCCCO[C@@H](CN(C)S(C)(=O)=O)[C@@H](C)CN([C@H](C)CO)C(=O)c2cc(NS(=O)(=O)c3ccccc3)ccc2O1	9
C[C@H]1CN([C@@H](C)CO)C(=O)c2cccc(NC(=O)NC3CCCCC3)c2O[C@@H]1CN(C)S(=O)(=O)c1ccc(Cl)cc1	5
CCOc1cc(C2N=C(Nc3nc4ccccc4o3)NC3=C2C(=O)CC(C)(C)C3)ccc1O (centres undefined)	36
Cc1noc(C)c1NC(=O)N(C)C[C@H]1Oc2ccc(NC(=O)Cc3ccccc3)cc2CC(=O)N([C@H](C)CO)C[C@H]1C	19
Cc1noc(C)c1NC(=O)Nc1ccc2c(c1)CC(=O)N([C@@H](C)CO)C[C@@H](C)[C@@H](CN(C)C(=O)Nc1c(C)noc1C)O2	-1
C=C1C(=O)O[C@@H]2C3=C(C)CC[C@]34O[C@@H](C[C@@H]4C)[C@H]12	114*
O=C(CSc1nnc(-c2ccc(Br)cc2)o1)Nc1cccc(C(=O)N2CCOCC2)c1	3
COc1ccc(OC)c(S(=O)(=O)N(C)CC(=O)Nc2ccc(C(F)(F)F)cc2)c1	10

This is a subset; count on the stated rates, not on these rows.
